Bioassay records (PubChem)
VDR inh: inhibitors of human vitamin D receptor. P11473. hit rate 0.93% among 400,000. VDR-SRC2-3 peptide fluorescence polarization, 2 h. Potency, µM, for the others: max response, negative = inhibition, actives largely listed as inhibitors. AID 504847; active means well fitted inhibition curve with a large enough effect; inconclusive means small, poorly fitted or top-dose-only effect, or another doubt; inactive means no such curve, though single readings can be large or run the other way; further: series mostly up to about 120 µM
Target sequence (P11473 whole entry, looked up): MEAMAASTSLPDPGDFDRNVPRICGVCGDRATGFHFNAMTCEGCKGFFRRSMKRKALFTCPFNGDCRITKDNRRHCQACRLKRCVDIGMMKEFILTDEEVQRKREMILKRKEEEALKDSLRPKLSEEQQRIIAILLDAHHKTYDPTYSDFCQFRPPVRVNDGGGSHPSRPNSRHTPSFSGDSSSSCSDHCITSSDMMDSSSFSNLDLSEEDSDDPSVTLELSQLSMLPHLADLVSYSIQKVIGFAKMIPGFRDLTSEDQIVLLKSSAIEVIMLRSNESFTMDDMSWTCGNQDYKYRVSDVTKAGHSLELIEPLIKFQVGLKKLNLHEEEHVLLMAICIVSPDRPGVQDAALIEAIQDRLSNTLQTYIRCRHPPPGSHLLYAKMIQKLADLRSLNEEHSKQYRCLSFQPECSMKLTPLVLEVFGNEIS
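The screen uses fluorescence polarization to detect compounds that interfere with recruitment of the SRC2-3 coactivator peptide to VDR; plates are read after 2 h at room temperature.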
An asterisk follows results filed as active; ? = inconclusive. On the % scale 0 is the no-effect control and ±100 the full control effect; potency means the concentration at half of the fitted maximal effect. Some of the compounds tested; count on the stated rates, not on these rows.

A first look (two entries):
SMILES	VDR inh
COC(=O)Cn1cnc2c(oc3ccccc32)c1=O	10.2%
O=C(Nc1cccc(F)c1)C1CC(=O)N(c2ccc(Cl)cc2)C1 (stereo not drawn)	9.5%

The listing, from the first entry:
SMILES	VDR inh
COC(=O)Cn1cnc2c(oc3ccccc32)c1=O	10.2%
O=C(Nc1cccc(F)c1)C1CC(=O)N(c2ccc(Cl)cc2)C1 (stereo not drawn)	9.5%
COc1ccc(NC(=O)N(C)C[C@H]2Oc3c(NS(=O)(=O)c4cn(C)cn4)cccc3C(=O)N([C@H](C)CO)C[C@@H]2C)cc1	-3.3%
O=C(Nc1nc2ccccc2s1)c1ccc(S(=O)(=O)N2CCCC2)cc1	7.5%
COc1ccc(C(=O)N/N=C/c2ccc(OC)c(CSc3ccccn3)c2)cc1	-3.5%
Cc1ccc(Cl)cc1N1CCN(C(=O)c2cnn(-c3ccc(Cl)cc3)c2C2CCNCC2)CC1	4.4%
Nc1c2nc(-c3ccccc3Cl)[nH]c(=O)c2nc(=O)n1-c1ccccc1	-2.4%
O=C(O)c1ccccc1C(=O)Nc1ccc(-n2nccc2C(F)(F)F)cc1	4.3%
Cc1cc(C2=NNC(=NC3CC3)SC2)c(C)n1-c1ccccc1	?
COc1ccc(/C=N/N2CCN(C)CC2)cc1O	-21.5%
N#C/C(=C\c1ccccc1)C(=O)OCC(=O)N1CCCC1	?
COc1ccccc1CNC(=O)COC(=O)Cc1ccsc1	-7.2%
N=c1n(CC(=O)c2ccc([N+](=O)[O-])cc2)c2ccccc2n1Cc1ccc(Cl)cc1	-20.5%
O=C(NC1CC1)C1=C[C@@H](c2coc3ccccc3c2=O)C[C@@H](OCCCCO)O1	-23.4%
O=C(O)Cc1sc(Nc2ccc(Cl)cc2)nc1-c1cccs1	6.0%
O=C(NCc1ccc(F)cc1)c1cccc(N2CCCS2(=O)=O)c1	7.7%
Cc1ccc(C)c(N2CCN(C(=O)Nc3ccc4c(c3)N(C)C(=O)CS4)CC2)c1	-2.7%
O=C1OC(c2ccccc2)=N/C1=C\C=C\c1ccccc1[N+](=O)[O-]	-11.0%
Cc1ccc2c(c1)N(CC(=O)NCCc1ccccc1)C(=O)CO2	7.0%
Cc1ccc(C)c(N2CCN(C(=O)Cn3c(=O)[nH]c4ccsc4c3=O)CC2)c1	17.2%
CCCC(=O)Nc1ccc(C(=O)Nc2ccc([N+](=O)[O-])cc2OC)cc1	19.2%
O=C(c1cnc(N2CCCCC2)c2ccccc12)N1CCN(c2cccc(Cl)c2)CC1	5.1%
Cc1[nH]c2ccccc2c1SCCNC(=O)c1ccc(S(=O)(=O)N2CCCC2)cc1	-9.9%
CC/C(=C\C(=O)c1ccncc1)Nc1ccc(Br)cc1	-4.8%
CCN1CCN(S(=O)(=O)c2cc(OC)c(Cl)cc2OC)CC1	11.8%
Cc1ccc(CSc2ccc3nnc(CCNS(=O)(=O)c4ccc(C)cc4)n3n2)cc1	10.5%
O=[N+]([O-])c1ccc(Cl)c(S(=O)(=O)Nc2cccc(-c3ccc(N4CCCC4)nn3)c2)c1	-13.4%
Cc1ccc(-n2ccnc(NCCc3ccc(S(N)(=O)=O)cc3)c2=O)c(C)c1	8.9%
NS(=O)(=O)c1ccc(N=NN2CCCCC2)cc1	5.2%
Cc1ccc(C(=O)NCCN2C3=NC[C@H](C(C)C)N3C[C@H]2Cc2ccc(O)cc2)cc1Br	9.7%
CCC1Sc2ccccc2N(CC(=O)NCc2ccc(C)cc2)C1=O (stereo not drawn)	13.8%
Cc1ccc(NC(=O)c2cc(NC(=O)CCCC(=O)O)ccc2Cl)cc1Cl	6.7%
CCOC(=O)C1=C(C)NC(C)=C(C(=O)OCC)C1C(=O)OCC(=O)NC1(C#N)CCCCC1	-1.0%
O=C(CCN1C(=O)c2ccccc2C1=O)N1CCCCCC1	8.0%
O=C1CCCCCCCN1Cc1ccccc1	-4.4%
COc1ccc(NS(=O)(=O)c2ccc3c(c2)NC(=O)CC(=O)N3)cc1OC	-7.9%
Cc1ccc(N=Nc2[nH]c3ccccc3c2O)cc1	-20.7%
COc1ccccc1OCC#CCNC1CCCCC1C (stereo not drawn)	-12.0%
COc1ccc(C(C)(C)C)cc1NC(=O)C1CCCO1 (stereo not drawn)	14.4%
CCn1nnnc1-c1ccc(OC)c(S(=O)(=O)Nc2ccc(OC)cc2)c1	11.0%
COc1ccccc1-n1ccnc1SCC(=O)NCc1ccco1	?
O=C1C(C=Nc2ccc(F)cc2)=C(O)c2ccccc21	-2.5%
Fc1ccc(C2=NC(c3cccc(C(F)(F)F)c3)=Nc3ccccc3N2)cc1	9.6%
COc1ccccc1NCC(=O)N/N=C/c1cccnc1	0.9%
COc1ccc(C2C3=C(CC(C)(C)CC3=O)OC(N)=C2[N+](=O)[O-])cc1 (stereo not drawn)	-18.6%
O=C(c1cc(-c2ccco2)nc2ccccc12)N1CCN(Cc2ccccc2)CC1	-10.4%
O=C(Nc1nc(-c2ccc(Oc3ccccc3)cc2)cs1)C1=COCCO1	2.8%
COc1cccc(C(=O)CC2(O)C(=O)N(Cc3ccccc3)c3ccccc32)c1 (stereo not drawn)	-4.6%
COc1ccc(C(=O)c2ccc(Br)cc2)cc1	-12.4%
O=C(CCN1C(=O)c2ccccc2S1(=O)=O)N1CCN(c2ccccc2F)CC1	-0.6%
O=c1[nH]c(NCc2ccco2)nnc1Cc1ccccc1Cl	-9.9%
Cc1nc2cc(NC(=O)Nc3ccc(Br)cc3)ccc2o1	-8.8%
c1csc(C2=NC(c3ccncc3)=Nc3ccccc3N2)c1	9.2%
CCn1c(C)c(C(C)=O)c(N2CCCC2)nc1=S	-7.8%
Cc1[nH]n(-c2ccccc2)c(=O)c1/C=N/NC(=O)c1ccoc1C	-9.9%
Cc1cc(N2CCN(c3cccc(C)c3C)CC2)n2cnnc2n1	7.4%
Nc1c(C(=O)Nc2ccc3c(c2)OCCO3)nnn1CCc1ccccc1	?
COc1ccc(/C=C/C(=O)c2ccc(C)s2)cc1	31.6µM*
COc1ccc2c(c1)c(=O)c(S(=O)(=O)c1ccc(C)cc1)cn2Cc1ccccc1C	-1.7%
COc1ccc(-n2c(SCC(=O)N3CCCC(C)C3)nnc2-c2cccnc2)cc1 (stereo not drawn)	-5.9%

Three entries from above, sorted by heavy-atom count, low to high.
SMILES	VDR inh
COc1ccc(/C=N/N2CCN(C)CC2)cc1O	-21.5%
Cc1cc(C2=NNC(=NC3CC3)SC2)c(C)n1-c1ccccc1	?
Cc1ccc(CSc2ccc3nnc(CCNS(=O)(=O)c4ccc(C)cc4)n3n2)cc1	10.5%

Other results
SMILES	VDR inh
CN1C(=O)/C(=C/c2cccc(Cl)c2)Sc2ccc(C(=O)N3CCCC3)cc21	-9.2%
Cc1cc(NC(=O)CN2CCN(c3ccccn3)CC2)ccc1Br	4.6%
Nc1ccccc1N=Nc1ccccc1N	-18.9%
O=C(CSc1nnc(Cn2c(=O)sc3ccccc32)n1-c1ccccc1)N1CCCC1	-1.5%
CCOC(=O)c1c(-c2ccccc2)csc1NC(=S)NC	5.1%
O=C(Nc1ccc(N2CCN(CCOc3ccc(Cl)cc3)CC2)c(C(=O)O)c1)c1ccc(F)cc1	10.6%
COC(=O)C(C)N1C(=O)S/C(=C\c2cc(C)n(-c3ccccn3)c2C)C1=O (stereo not drawn)	12.5%
O=C(C[C@H]1C/C=C\C[C@H](Cc2ccc(F)cc2)C(=O)OC[C@@H]2CCCN2C1=O)N[C@H](CO)Cc1ccccc1	7.1%
Cc1ccc(CNC(=O)CCc2nc(-c3cccs3)no2)cc1	-6.3%
CCOC(=O)C1(CC2CCCCO2)CCN(S(=O)(=O)c2ccccc2)CC1 (stereo not drawn)	-1.4%
CC(=O)c1cc2c(cc1NC(=O)Cn1nc(-c3ccc(F)cc3)ccc1=O)OCO2	-6.8%
O=C1CC(c2ccccc2)=NN1c1nc(-c2ccccc2)cs1	-4.5%
COc1ccc(-n2c(SCc3nc(-c4ccc(Cl)cc4)no3)nnc2-c2ccncc2)cc1	0.8%
Cc1cc(C(=O)Nc2ccncc2)ccc1[N+](=O)[O-]	-9.5%
CCNC(=O)C1CCCN(c2nnc(C)c3c(C)n(-c4ccc(C)cc4)nc23)C1 (stereo not drawn)	12.3%
CC(Sc1nc(=O)cc(N)n1CCc1ccccc1)C(=O)NCc1ccccc1 (stereo not drawn)	5.7%
Cc1c(NC(=O)c2ccc(N3C(=O)C4C5C=CC(C5)C4C3=O)cc2)c(=O)n(-c2ccccc2)n1C (stereo not drawn)	6.5%
Cc1cc(=O)n(CC(=O)N2CCCc3ccccc32)c2c1c(C)nn2-c1cccc(F)c1	4.4%
CCC(C)NCCOc1ccc(C(C)(C)c2ccccc2)cc1 (stereo not drawn)	16.6%
O=c1c2c3c(sc2n(Cc2ccccc2F)c(=O)n1-c1ccc(Cl)cc1)CCCC3	-14.8%
COC(=O)c1c(NC(=O)c2cc(OC)c(OC)c(OC)c2Br)sc2c1CCC(C)C2 (stereo not drawn)	-6.0%
NC(=O)CCCn1c(C(=O)c2ccc(Cl)cc2)c2ccc([N+](=O)[O-])cc2[n+]1[O-]	-5.1%
COc1cc(S(=O)(=O)N2CCOCC2)ccc1F	0.2%
CCOc1ccccc1CNc1ncnc2ccc(-c3c(C)noc3C)cc12	-22.7%
COc1ccc(NC(=O)NC2CCCCCCC2)c(OC)c1	-2.9%
CCN(CC)S(=O)(=O)c1ccc2c(c1)N(CC(=O)Nc1ccc(NC(C)=O)cc1)C(=O)CO2	0.6%
CCOC(=O)C1=C(CN2c3ccccc3CC2C)NC(=O)NC1c1ccccc1 (stereo not drawn)	17.8%
CCc1ccc(NC(=O)CC2C(=O)Nc3c2c(=O)n(C)c(=O)n3C)cc1 (stereo not drawn)	5.0%
O=[N+]([O-])c1ccc(-c2nc3ccc([N+](=O)[O-])cc3[nH]2)cc1	3.1%
Nn1c(SCC(=O)NC2CCCCC2)nnc1-c1ccco1	-11.0%
CCOC(=O)c1sc(N)c(C(=O)Nc2ccccc2)c1C	?
Cc1cccc(OCC(=O)NC(=S)Nc2ccccc2N2CCOCC2)c1C	-2.1%
CC1(C)CC[C@]2(C(=O)O)CC[C@@]3(C)C(=CCC4[C@@]5(C)CCC(O)C(C)(C)C5CC[C@@]43C)C2C1 (stereo partly drawn)	1.3%
CC(=O)Nc1cccc(NC(=S)Nc2ccc(F)cc2F)c1	-5.9%
COc1ccc(NC(=O)CN2C(=O)NC(C)(c3ccccc3)C2=O)c(OC)c1 (stereo not drawn)	17.6%
COC(=O)c1ccc(-n2c(C)cc(/C=N/n3cnnc3)c2C)cc1	6.0%
NC(=O)c1ccccc1NC(=O)CC1(CC(=O)O)CCCC1	-3.8%
Cc1nnc(N2CCCC(C(=O)NCc3ccccc3)C2)c2nn(-c3ccccc3)c(C)c12 (stereo not drawn)	1.2%
Cc1ccccc1NC(=O)C1CCCN1/C=C/C(=O)C(F)(F)F (stereo not drawn)	-5.2%
CC(C)Cn1nc(C(=O)NCc2ccccc2CN2CCCC2)c2ccccc2c1=O	-5.5%
Cc1nnc2sc(COc3ccccc3)nn2c1=O	1.9%
CCN(CCO)Cc1cc(=O)oc2c(C)c(C)ccc12	-15.0%
COCCOC(=O)c1c(C)n(C)c2ccc(OC(=O)c3ccccc3F)cc12	1.6%
COC(=O)c1cc(S(=O)(=O)N2CCCCC2C)c[nH]1 (stereo not drawn)	12.8%
CCC1CN(C(=O)Nc2cc(Cl)ccc2C(=O)OC)c2ccccc2S1 (stereo not drawn)	5.6%

Pulled one by one from above (six):
SMILES	VDR inh
CC1(C)CC[C@]2(C(=O)O)CC[C@@]3(C)C(=CCC4[C@@]5(C)CCC(O)C(C)(C)C5CC[C@@]43C)C2C1 (stereo partly drawn)	1.3%
CC(=O)Nc1cccc(NC(=S)Nc2ccc(F)cc2F)c1	-5.9%
COC(=O)c1cc(S(=O)(=O)N2CCCCC2C)c[nH]1 (stereo not drawn)	12.8%
CC(C)Cn1nc(C(=O)NCc2ccccc2CN2CCCC2)c2ccccc2c1=O	-5.5%
CCC1CN(C(=O)Nc2cc(Cl)ccc2C(=O)OC)c2ccccc2S1 (stereo not drawn)	5.6%
Cc1nnc2sc(COc3ccccc3)nn2c1=O	1.9%

Other entries.
SMILES	VDR inh
Cc1cc(NC(=O)c2cccc3ccccc23)cc(C)c1OCC(=O)N1CCOCC1	13.9%
COc1cc(CN2CCN(CCOCCO)CC2)cc(OC)c1OC	14.9%
CC(C)OCCCn1c(SCc2cccc(Br)c2)nc2c(sc3ccccc32)c1=O	1.3%
O=S(=O)(NCc1cccnc1)c1cccn1-c1ncc(C(F)(F)F)cc1Cl	16.0%
COc1cc(NC(=O)CCn2c(=S)oc3ccccc32)cc(OC)c1OC	9.3%
COCCn1c(=NC(=O)/C=C/c2ccccc2Cl)sc2cc(NC(C)=O)ccc21	10.1%
Cc1cccc(NC(=O)NCC2CC2)c1	-16.0%
COc1cccc(C(=O)Nc2cc(NC(=O)c3cccs3)ccc2C)c1OC	3.3%
O=C(CNC(=O)c1ccc(N2C(=O)c3ccccc3C2=O)cc1)OCC(=O)c1cccc2ccccc12	-26.2%
N#CC1=C(N)Oc2cc(N)ccc2C1c1ccccc1 (stereo not drawn)	16.0%
O=C(c1cccnc1)N1N=C(c2cccs2)CC1c1ccc(F)cc1 (stereo not drawn)	-18.0%
COc1ccc(OCc2nn3c(-c4cccc(OC)c4)nnc3s2)cc1	-6.9%
FC(F)(F)c1cc(N2CCN(Cc3ccccc3)CC2)c2ccccc2n1	-15.3%
CCCN(CCC)C(=O)CSc1nc2ccccc2c(=O)n1C1CCCC1	-2.1%
CCOc1ccc(Br)cc1S(=O)(=O)N1CCC(C(=O)O)CC1	6.7%

Printed as active in VDR inh (from the list above):
SMILES	VDR inh
COc1ccc(/C=C/C(=O)c2ccc(C)s2)cc1	31.6µM*
